Screens (PubChem)
HIV Env fusion = HIV envelope-mediated fusion inhibition; actives 1.1% (n = 360,000); inhibition, % at 12.3 µM; HeLa-JRFL Env/CEM21 cell fusion, luciferase;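 active = mean replicate inhibition score of at least 50 and every replicate individually at or above 50; inconclusive = only one of the two criteria met; inactive = mean below 50 and not all replicates reaching 50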;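 also: 0% = plate neutral controls and 100% = maraviroc near 300 nM; one replicate is shown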
MT1-MMP act inh = blocks activation of human MT1-MMP. AID 651647. GFP/RFP ratio change, % at 20 µM. HT1080 RFP-PRO-GFP cells, GFP/RFP ratio fluorescence, overnight; percent of plate control window, DMSO zero. P50281. actives 0.061% (n = 360,000);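 active = GFP/RFP ratio change of at least 30% with cell ATP level not reduced by more than half and red fluorescence within 50% of control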; also: strong numbers were not always called active
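Assay system: HT1080 RFP-PRO-GFP cells | Dosing: 20 µM single dose, 1% DMSO | Incubation: Cells overnight before dosing, compound overnight, 37 °C, 5% CO2 | Evaluation: GFP/RFP fluorescence ratio | Control set: DMSO-only wells and HT1080 RFP-L50D-GFP cell wells as references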
CSC inhib = blocks cancer stem cells. inhibition, % at 7.5 µM. cancer stem cell-like cells viability, luminescence. AID 2717. actives 1.1% (n = 300,000);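 active = mean at 75% or more and at least half the replicates too; inconclusive = mean and replicates disagree; tested in HMLE shEcad cells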;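 also: 0% = median of negative and 100% = median of positive control wells; the first replicate is given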
PABP FP inh = PABP-poly(A) binding inhibition | AID 2014 | PABP-poly(A) RNA binding, fluorescence polarization | inhibition, % at 35 µM | actives 1% (n = 290,000);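 active = 50% or more with normal probe brightness, or confirmed in later tests; inconclusive = above 50% with abnormal brightness, or retests that disagree; inactive = below 50% or failed in later tests; about a fifth of its hits are not listed in these tables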;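 also: calls also rest on retests at 20 µM and on dose response follow-up; controls were probe without protein and protein plus probe with vehicle; some compounds called inactive have numbers as strong as hits; many hits fall short of the cut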
Rce1 inhib = inhibitors of yeast Ras-converting enzyme. Q03530. AID 2563. yeast membranes, quenched prenylated peptide cleavage fluorescence. calls only. actives 0.27% (n = 290,000);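 active = fall in fluorescence gain of 50% or more versus controls, with final raw signal at or below 3038400; inconclusive = same 50% fall but final raw signal above 3038400; inactive = fall in fluorescence gain under 50%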;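 also: plate controls were neutral control wells for no effect and wells lacking membranes for full effect; tested at 10 µM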
Target sequence (Q03530 whole entry, looked up): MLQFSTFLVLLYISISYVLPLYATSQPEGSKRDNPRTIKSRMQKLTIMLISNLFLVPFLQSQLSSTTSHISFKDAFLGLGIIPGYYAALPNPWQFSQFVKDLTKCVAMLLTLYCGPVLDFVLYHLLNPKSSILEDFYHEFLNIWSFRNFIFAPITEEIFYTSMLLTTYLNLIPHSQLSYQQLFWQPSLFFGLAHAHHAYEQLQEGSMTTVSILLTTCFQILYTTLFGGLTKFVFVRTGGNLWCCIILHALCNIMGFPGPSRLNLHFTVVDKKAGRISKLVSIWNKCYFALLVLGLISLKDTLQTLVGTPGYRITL
UUG fidelity = yeast start codon fidelity modulation; S. cerevisiae UUG-firefly luciferase reporter, luminescence/redox ratio; activity score, % at 18.7 µM; actives 0.13% (n = 350,000); AID 602363;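 active = replicate mean at a twofold rise or more, about +100% in these data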;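 also: firefly luciferase made from a UUG start codon reports start codon fidelity; reporter light over untreated wells divided by growth signal over untreated wells; some hits fall short of that in this replicate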
eIF4H inh = inhibitors of RNA binding by human eIF4H. Q15056. actives 0.94% (n = 290,000). eIF4H fluorescence polarization binding assay. inhibition, % at 35 µM. AID 2012;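 active = 50% or more with normal probe brightness, or confirmed in later tests; inconclusive = above 50% with abnormal brightness, or retests that disagree; inactive = below 50% or failed in later tests; about a fifth of its hits are not listed in these tables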;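 also: calls also rest on retests at 20 µM and on dose response follow-up; 0% = protein and probe with vehicle and 100% = probe without protein; strong numbers were not always called active; many hits fall short of the cut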
eIF4H inh retest = recorded beside eIF4H inh, whose call it bears; inhibition, %; compound at 20 µM; confirmation average;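 mean of two retest wells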
PABP FP inh retest = also measured in PABP FP inh; calls as there; inhibition, %; compound at 20 µM; confirmation repeats;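 mean of two retest wells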
MT1-MMP act inh RFP = recorded beside MT1-MMP act inh, whose call it bears; RFP signal change, %; measured here: RFP expression control read;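 0 = vehicle wells; hits needed this value within 50% of zero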
The depositor's hits bear a star; i = inactive; u = inconclusive; x = not tested or not shown; + = active, no number; & = joins results of further samples. A portion of the library; the hit share may differ from the screen's.

SMILES	HIV Env fusion	MT1-MMP act inh	MT1-MMP act inh RFP	CSC inhib	PABP FP inh	Rce1 inhib	UUG fidelity	eIF4H inh	others
Clc1ccccc1CN1CCN(c2cccc3[nH]ccc23)CC1	x	2	2	23	4	i	-16	-1
C=CCn1c(O)c(/C=N/N2CCCCC2c2cccnc2)c(=O)[nH]c1=S (configuration not stated)	5	0	1	12	12	i	x	-1
O=C1NC(=O)N(c2cccc(Cl)c2)C(=O)/C1=C\c1ccc(Sc2nc3ccccc3[nH]2)o1	8	-5	65	-2	-19	i	x	u
COc1ccccc1CC1C(=O)C2CCN1CC2 (configuration not stated)	x	6	5	x	1	i	-11	-2
C[C@]12CCC3C(CC[C@H]4C[C@@H](O)CC[C@]34C)C1=CC[C@@H]2O (some centres not stated)	-13	-1	0	x	x	x	-11	x
Clc1ccc(-c2nc3ccc(Cl)cn3c2CN2CCCCC2)cc1	18	-5	-6	16	-5	i	-10	-6
O=c1cccc2n1CC1CC2CN(S(=O)(=O)c2cc(Cl)ccc2Cl)C1 (configuration not stated)	-9	-5	1	-8	-8	i	-5	6
O=P(Nc1ccccc1)(Oc1ccccc1)Oc1ccccc1	15	-4	-7	10	-11	i	-10	-5
CN(C)CCNC(=O)c1cccn(Cc2cccc(C(F)(F)F)c2)c1=O	-8	-2	-2	-8	-15	+	x	-1
CC1CCCCN1CC(O)c1c[nH]c2ccccc12 (configuration not stated)	-1	-3	5	-6	-2	i	-13	3
COC(=O)c1ccc(C(C(=O)NC2CCCCC2)N(CCN2CCOCC2)C(=O)Cc2cccs2)cc1 (configuration not stated)	-8	3	3	-2	-7	i	x	0
CCCOc1ccc(C(=O)NC(=S)N2C[C@H]3C[C@H](C2)c2cccc(=O)n2C3)cc1	x	1	-2	1	2	i	-27	4
COc1ccc2c(c1)NP(=S)(c1ccccc1)N2C (configuration not stated)	-42	5	-3	x	x	x	-11	x
COC(=O)C1=C(c2c(C)noc2C)C[C@@H]2CC[C@H]1N2C(=O)NC1Cc2ccccc2C1	-4	-4	2	-24	x	x	-14	x
COC(=O)C1=C(c2ccc(-c3ccccc3)c(F)c2)C[C@@H]2CC[C@H]1N2C(=O)N1CCC(O)CC1	-20	-3	-19	-9	x	x	-13	x
COc1ccc(CC(=O)N(C)C2CCCN(Cc3ccccc3F)C2)cc1OC (configuration not stated)	-12	x	x	-4	0	i	4	-11
CC(=O)Nc1ccc(C2CN(C)CC2C(=O)c2ccc(Cl)cc2)cc1 (configuration not stated)	4	-11	-3	-16	3	i	x	0
CSC1=NP(=S)(SC)N(C)c2nc3n(c21)CCC3 (configuration not stated)	x	x	x	-7	8	i	x	-8
COc1ccc2c3c([nH]c2c1)C(C)NCC3 (configuration not stated)	x	-33	7	9	-8	i	-6	-3
CCOc1ccccc1-n1c(O)c(C=Nc2ccc(N(CC)CC)cc2)c(=O)[nH]c1=O	x	-14	-12	u	3	i	-14	-20
CC(C)[C@H]1C(=O)O[C@@H]2CCN3CC=C(COC(=O)[C@](C)(O)[C@]1(C)O)[C@H]23	-11	-4	-2	-6	12	i	5	2
C=CCn1c(O)c(C(CC)=Nc2cccc(C(F)(F)F)c2)c(=O)[nH]c1=O	9	-1	3	-3	-8	i	x	14
COC(=O)C1=C(c2ccc(Cl)c(C(F)(F)F)c2)C[C@@H]2CC[C@H]1N2C(=O)NCc1ccc2c(c1)OCO2	19	4	-3	20	x	x	-20	x
COc1ccc(-n2nnnc2C(c2cc3ccccc3o2)N2CCC(n3c(=O)[nH]c4ccccc43)CC2)cc1 (configuration not stated)	7	16	-32	x	x	x	-22	x
COc1ccc(-c2[nH]ncc2CNC(C)Cc2ccsc2)c(F)c1 (configuration not stated)	44	0	0	-22	-4	i	x	-1
O=C(CCc1ccccc1)N1C[C@H]2C[C@@H](C1)c1cccc(=O)n1C2	x	13	5	-10	9	i	-9	7
COc1c2c(cc3c1OCO3)CCN(C)C2	-1	3	8	-11	x	x	-10	x
CC(C)[C@H](NC(=O)N1C[C@H]2C[C@@H](C1)c1cccc(=O)n1C2)C(=O)Nc1ccccc1F	x	0	-1	-5	-1	x	-1	-13
O=[N+]([O-])c1cccc(CN2CC=C(c3ccc(F)cc3)CC2)c1	7	0	2	-14	-1	i	-2	7
C=C1[C@H]2CC[C@H]3[C@]4(C)C[C@H](O[C@H]5O[C@H](CO)[C@@H](OS(=O)(=O)O)[C@H](OS(=O)(=O)O)[C@H]5OC(=O)CC(C)C)C[C@@H](C(=O)O)[C@H]4CC[C@]3(C2)[C@H]1O	4	1	5	-9	x	x	-11	x
CC(N=Cc1c(O)n(C2CC2)c(=S)[nH]c1=O)c1ccccc1 (configuration not stated)	-24	-2	-1	-10	1	i	x	0
Cc1ccccc1NC(=O)c1cc(-c2ccccc2)n(CCCN2CCOCC2)c1C	-4	2	-1	-6	12	i	-3	10
N#CC(CCN1CCOCC1)(c1ccccc1)c1ccccc1	-2	-8	-4	-14	1	i	-19	-6
COC(=O)C1=C(c2ccc(OC(F)(F)F)cc2)C[C@@H]2CC[C@H]1N2C(=O)NCc1cc(C)oc1C(F)(F)F	22	-8	-14	14	x	x	-2	x
COc1c(C)cc(C(=O)C2CCCN(Cc3cccc(O)c3)C2)cc1C (configuration not stated)	8	3	-2	66	8	i	-13	-2
N/C(=N\N=C/c1ccc(-c2ccc(O)c(C(=O)O)c2)o1)N[N+](=O)[O-]	-71	2	3	8	60*	i	-13	103*	eIF4H inh retest=106*;PABP FP inh retest=97*
CCC(C)N1C(=O)/C(=C/c2ccc3c(c2)CCN3CCCCl)C(=O)NC1=S (configuration not stated)	-100	-3	24	-1	0	i	x	34
Cc1ccc2c(c1)CNc1ccccc1O2	x	-3	1	-1	-6	i	-18	4
CCOc1ccc2c(c1)c(C(C)=O)c(C)n2Cc1ccco1	-4	5	-4	-5	-8	i	-6	-15
NCC(=O)c1ccccc1	-21	-2	2	x	x	x	-10	x
COc1cccc(-n2c(O)c(C=NCc3ccc4c(c3)OCO4)c(=O)[nH]c2=O)c1	x	1	3	x	1	i	-3	-6
O=[N+]([O-])c1ccc(N2CCNCC2)cc1N1CCCCC1	-12	-14	-7	-13	-9	i	x	-5
COC(=O)C1=C(c2cccc(C#N)c2)C[C@@H]2CC[C@H]1N2C(=O)NCc1ccc(F)cc1	18	0	0	-13	x	x	3	x
CCOC(=O)c1c(-n2c(C)cc(/C=C3\C(=O)NC(=O)N(C)C3=O)c2C)sc2c1CCCC2	5	-13	-6	6	u	i	-6	u
O=c1[nH]c(=O)n(-c2ccc(Br)cc2)c(O)c1C=NCCN1CCCCC1	6	0	1	-20	-10	i	-1	-6
CN1c2ccccc2Oc2ccccc21	-19	-2	5	11	-5	i	x	-9
CCOS(C)(=O)=O	x	-3	5	-10	x	x	3	x
CC(C)(C)n1nnnc1C(C1CC1)N1CCC(n2c(=O)[nH]c3ccccc32)CC1 (configuration not stated)	-17	2	4	x	x	x	1	x
CCN1CCN(C(=O)COc2ccc(S(=O)(=O)N3CCOCC3)cc2Cl)CC1	3	-1	-1	-6	1	x	8	16
O=[N+]([O-])c1ccc(Cl)cc1	x	-3	4	-11	x	x	-11	x
CC1CCN(S(=O)(=O)c2ccc(NN=C(C#N)C#N)cc2)CC1	x	x	x	25	-5	x	x	-5
O=c1[nH]c(=O)n(-c2ccc(F)cc2)c(O)c1C=Nc1ccccc1N1CCCC1	x	3	-1	-14	77*	i	-10	64*
Cc1ccc(C(=O)Nc2ccc(-n3ccnc3P(=O)(O)c3ccccc3)cc2)cc1	x	2	1	-13	-4	i	-25	-4
COc1ccc(-c2nn(CCC#N)cc2C(=O)Nc2ccc(C(C)=O)cc2)cc1[N+](=O)[O-]	-1	1	-2	4	0	i	-16	2
CCc1cc(=O)oc2cc(OCC(=O)N3C[C@H]4C[C@@H](C3)c3cccc(=O)n3C4)ccc12	x	-1	5	-8	10	i	-8	1
Cc1cccc(C)c1-n1nnnc1C(c1cccs1)N1CCC2(CC1)C(=O)NCN2c1ccccc1 (configuration not stated)	-22	-5	-8	x	x	x	-2	x
Nc1c2c(nc3sc4c(c13)CCCC4)CCCCC2	x	1	-2	-2	-15	i	-6	-12
COc1ccc(C2c3c(nc(C)[nH]c3=O)Oc3c2c(=O)oc2ccccc32)cc1 (configuration not stated)	-83	x	x	-8	6	i	x	0
OC[C@H]1O[C@@H](n2cnc3cc(Cl)c(Cl)cc32)[C@H](O)[C@@H]1O	18	-12	-3	4	x	x	-15	x
CC1(C)CC(=O)C2=C(C1)NC(=O)C21C(C(=O)OC(C)(C)C)=C(N)Oc2ccc(Br)cc21 (configuration not stated)	-44	-7	2	x	-4	i	-5	-6
Continued.
SMILES	HIV Env fusion	MT1-MMP act inh	MT1-MMP act inh RFP	CSC inhib	PABP FP inh	Rce1 inhib	UUG fidelity	eIF4H inh	others
CN(C)P(=O)(NC(=O)c1cccn1C)N(C)C	9	4	8	8	-7	i	x	1
COC(=O)C(O)(c1ccc(NC(=S)NC(=O)c2ccccc2)cc1)C(F)(F)F (configuration not stated)	-25	0	-5	x	3	i	-25	7
CC(C)Cc1nnc(NC(=O)CCC(=O)N2CCC3(CC2)OCCO3)s1	-4	6	0	-18	2	i	-3	17
NC(N)=N/N=C/c1cn(-c2ccccc2)nc1-c1cccs1	-65	5	-8	-14	8	i	x	-12
O=P(NS(=O)(=O)c1ccccc1)(Oc1ccccc1)Oc1ccccc1	x	9	4	1	12	i	-7	0
COC(=O)C1=CO[C@@H](C)[C@H]2CN3CC[C@]4(C(=O)Nc5ccccc54)[C@@H]3C[C@H]12	x	0	1	-16	x	i	-26	x
Nc1cc2nc3ccccc3nc2cc1N	3	-3	1	8	81*	i	-9	91*
C=CCN1C(=O)NC(=O)/C(=C/c2c(CCN(C)C(=O)c3ccccc3)cc3c(c2OC)OCO3)C1=O	x	3	1	-6	9	i	0	6
CC(Oc1ccc(-c2ccccc2)cc1)C(=O)O (configuration not stated)	-38	3	4	7	-5	i	-8	-12
Fc1cccc(CCNCc2ccccn2)c1	-42	1	6	-8	7	i	-10	4
CCn1nc(-c2ccccc2)nc2c(=O)n(C)c(=O)nc1-2	x	3	6	-6	-7	i	x	u
CSc1ccc(C(=O)C2CCCN(Cc3cnc(SC)nc3)C2)cc1 (configuration not stated)	18	1	-4	19	8	i	12	4
Cc1ccc(OCC(=O)N2CCN(Cc3cccnc3)CC2)cc1	3	0	3	18	3	i	2	17
C=CCn1c(O)c(C(C)=Nc2ccc(N(C)C)cc2)c(=O)[nH]c1=O	-11	-3	1	-7	-14	i	-26	-7
C[C@@H]1CN([C@@H](C)CO)C(=O)CCCn2nncc2CO[C@H]1CN(C)C(=O)Oc1ccccc1	-32	-5	1	x	x	x	-7&-11	x
CCCCn1nnnc1C(CCSC)N1CCC2(CC1)C(=O)NCN2c1ccccc1 (configuration not stated)	-4	-1	0	x	x	x	2	x

An excerpt from the list above, for reference:
SMILES	HIV Env fusion	MT1-MMP act inh	MT1-MMP act inh RFP	CSC inhib	PABP FP inh	Rce1 inhib	UUG fidelity	eIF4H inh	others
Clc1ccccc1CN1CCN(c2cccc3[nH]ccc23)CC1	x	2	2	23	4	i	-16	-1
C=CCn1c(O)c(/C=N/N2CCCCC2c2cccnc2)c(=O)[nH]c1=S (configuration not stated)	5	0	1	12	12	i	x	-1
